2A firefly: FMDV 2A StopGo reporter, firefly signal; HEK cells with a luciferase reporter of 2A StopGo recoding; Potency, µM (highest dose often 57.5 µM), for inactives: at the top dose signal change, negative = less light; hit rate 0.23% among 120,000; AID 1745856; active = well fitted falling curve with a large enough effect; inconclusive = small, poorly fitted or top-dose-only effect; inactive = no such curve, though single readings can be large or run the other way; note: nearly all actives have a fitted effect of over 60% in size; overnight with compound
StopGo RLuc: FMDV 2A StopGo reporter, Renilla signal; HEK cells with a luciferase reporter of 2A StopGo recoding; Potency, µM (titrated, usually from 57.5 µM), without a hit: at the top dose signal change, negative = less light; hit rate 0.32% among 120,000; AID 1745857; active means well fitted falling curve with a large enough effect; inconclusive means small, poorly fitted or top-dose-only effect; inactive means no such curve, though single readings can be large or run the other way; note: nearly all actives have a fitted effect of over 55% in size; overnight with compound
* hit, by the source's call; ? = inconclusive; [ ] = dose if it differs, or a comment. % is set by controls: 0 for no effect and ±100 for the full control effect; potency is the fitted concentration of half-maximal effect.

SMILES | 2A firefly | StopGo RLuc
Cc1nc2nc(N)nn2c(C)c1CC(=O)NC(C)C1CC1 (stereo not given) | 4.8% | 1.9%
O=C(c1cc2ccccc2oc1=O)N(Cc1ccc(C(F)(F)F)cc1)C1CC1 | 11.0% | 60.5%[activator]
CCOC(=O)C1CCN(S(=O)(=O)c2ccc(N3CCCCS3(=O)=O)cc2)CC1 | 6.4% | -4.5%
COC(=O)c1ccccc1NC(=O)CCCS(=O)(=O)c1nc(-c2ccccc2OC)cc(C(F)(F)F)n1 | -12.5% | -5.7%
CCOc1cccc(CC(=O)NCc2ccc3c(c2)CCN3C(=O)c2cccc(C)c2)c1OCC | ? | ?
O=C(Nc1ccc(CC23CC4CC(CC(C4)C2)C3)cc1)c1ccc(F)cc1 | -2.8% | 7.6%
CCCCCCn1c(SCCc2ccccc2)nc2c1c(=O)[nH]c(=O)n2C | -10.3% | 0.4%
O=C(c1cc2cc(Br)cc(Br)c2oc1=O)N1CCc2ccccc2C1 | 1.8% | -1.3%
COC(=O)CC(NC(=O)Cc1ccccc1Cl)c1cccs1 (stereo not given) | 55.1%[activator] | 37.0%[activator]
NC(=O)C1CN(CC(=O)Nc2ccccc2Sc2ccc(Cl)cc2)c2ccccc2O1 (stereo not given) | ? | ?
CCOc1ccc(-n2nc(CO)c(C(=O)NCc3ccccn3)n2)cc1 | 50.9%[activator] | 15.4%
Cc1ccc(/C=N/NC(=O)C2CC2)o1 | 15.5% | 3.8%
Cc1cc2n(n1)CCC(=O)N2Cc1ccc(C(=O)Nc2ccc(Br)c(C)c2)cc1 | 36.4%[activator] | 37.1%[activator]
CCc1c(C(=O)Nc2ccc(OC)cc2OC)csc1C | 107.6%[activator] | 64.9%[activator]
Cc1ccc(C(=O)NC2C3CC4CC(C3)CC2C4)c(Cl)c1 (stereo not given) | 89.7%[activator] | 94.1%[activator]
O=C(NCc1ccccc1)C1CCN(S(=O)(=O)Cc2ccccc2)CC1 | 5.2% | -11.6%
Cc1cc(SCc2ccc(Cl)c(Cl)c2)nc2ccc(F)cc12 | -1.1% | 5.7%
COc1ccc(-c2nc3c(C(C)(C)C)cc(C(C)(C)C)c(O)c3o2)cc1OC | -4.3% | -13.4%
Cc1nc2cc(NC(C)C(=O)Nc3ccc(C(C)C)cc3)ccc2o1 (stereo not given) | 31.5%[activator] | 9.3%
COc1ccccc1OCC(=O)NC1CC(=O)N(c2ccc3c(c2)OCCO3)C1 (stereo not given) | -8.5% | -10.7%

Five of these compounds, set out differently:
Values in the order – 2A firefly, StopGo RLuc
CCOC(=O)C1CCN(S(=O)(=O)c2ccc(N3CCCCS3(=O)=O)cc2)CC1
    6.4%, -4.5%
CCc1c(C(=O)Nc2ccc(OC)cc2OC)csc1C
    107.6%[activator], 64.9%[activator]
Cc1nc2cc(NC(C)C(=O)Nc3ccc(C(C)C)cc3)ccc2o1 (stereo not given)
    31.5%[activator], 9.3%
CCOc1ccc(-n2nc(CO)c(C(=O)NCc3ccccn3)n2)cc1
    50.9%[activator], 15.4%
O=C(NCc1ccccc1)C1CCN(S(=O)(=O)Cc2ccccc2)CC1
    5.2%, -11.6%

Further compounds follow.
SMILES | 2A firefly | StopGo RLuc
CCC(CC)C(=O)Nc1ccc2nc(SCC(=O)N3CCCC3)sc2c1 | -4.1% | -3.7%
CCc1ccc(NC(=O)CN2CCN(Cc3ccccc3)S2(=O)=O)cc1 | -5.0% | -0.6%
Cc1ccccc1Nc1c(-c2ccncc2)nc2ccc(Cl)cn12 | -19.6% | -12.5%
CCOC(=O)c1cnc2c(C)cc(C)cc2c1Nc1cccc([N+](=O)[O-])c1 | -12.9% | -13.3%
COc1ccc(-n2c(=O)c3ccccc3n(Cc3ccccc3Cl)c2=O)cc1 | -0.4% | -7.5%
COc1cccc2c(C)cc3nnc(SCC(=O)Nc4ccc(C)cc4)n3c12 | -7.8% | -7.3%
COCCNC(=O)CSc1nc(-c2ccccc2)[nH]c1-c1ccc(C)cc1 | 0.0% | 45.8%[activator]
Brc1ccccc1/C=N/N(c1ccccc1)c1ccccc1 | -7.0% | 4.1%
CCOC(=O)C1=C(CN(CCOC)Cc2ccco2)NC(=O)NC1c1cccs1 (stereo not given) | 5.4% | 13.3%
Cn1nc(C(=O)NC2CCS(=O)(=O)C2)c2ccccc2c1=O (stereo not given) | -6.4% | 6.6%
CCOc1ccc2c(c1)cc(C(=O)NCCOc1ccc(Cl)cc1)n2C | -4.6% | 8.2%
CNC(=O)N/C=C(/C#N)C(=O)OC | 14.9% | 13.2%
Cc1nnc(C(=O)Nc2ccc(C(=O)NCc3ccc4c(c3)OCO4)cc2)s1 | 5.4% | 8.5%
CCOc1ccccc1NC(=O)C(=O)c1c[nH]c2c(CC)cccc12 | 0.2% | 13.8%
Cn1c(=O)[nH]c(=O)c2c1nc(SCC(=O)OCc1ccccc1)n2Cc1ccccc1Cl | -1.5% | -5.7%
Cc1ccc(C)c(-n2ncc3c(NNC(=O)C4CCCCC4)ncnc32)c1 | 14.4% | -6.0%
O=C(COc1cccc2ccccc12)N(C1CCCC1)C1CCS(=O)(=O)C1 (stereo not given) | -2.9% | -6.3%
CCOc1cc(C(=O)Nc2cccc(-c3nc4ncccc4o3)c2)cc(OCC)c1OCC | -10.3% | 1.2%
COc1ccc2oc(=O)c(-c3nc(-c4ccccn4)no3)cc2c1 | 78.9%[activator] | -1.6%
CC(=O)Oc1ccc(C(=O)Nc2ccc(O)c(-c3nc4ccccc4o3)c2)cc1 | 17.3% | -2.2%
Cc1ccc(-n2ncc(C(=O)NCCCN3CCc4ccccc4C3)c2C2CCN(C(=O)OC(C)(C)C)CC2)cc1C | -17.2% | -12.9%
CN1CCC2(CC1)N=C(SCC(=O)Nc1cc(F)ccc1F)C(c1ccccc1)=N2 | -11.5% | -16.2%
CCCCc1ccc(Nc2ncnc3c2cnn3-c2ccc(OC)cc2)cc1 | 12.0% | 7.2%
O=[N+]([O-])c1ccccc1S(=O)(=O)Nc1ccccc1-n1cccn1 | -6.6% | 31.0%[activator]
Cc1nc(-c2ccccc2)sc1C(=O)N1CCN(Cc2ccc(C#N)cc2)CC1 | ? | ?
O=C(NCc1cccc(F)c1)c1ccc(-n2cnc3cccnc32)cc1 | 46.9%[activator] | 30.2%[activator]
COc1ccc(C(=O)/C=C/c2ccc(OCC#N)c(OC)c2)cc1OC | ? | ?
CCn1nc(C(=O)Nc2cc(S(=O)(=O)N(C)C)ccc2C)c2ccccc2c1=O | 34.7%[activator] | 26.8%
CC(C)Nc1ccc(-c2nc(-c3ccco3)no2)cc1[N+](=O)[O-] | -83.2% | -1.5%
N#Cc1c(N)n[nH]c1CCCNC(=O)NC1CCCc2ccccc21 (stereo not given) | 30.5% | 50.3%[activator]
CCCOc1cc(C)c(Cl)cc1S(=O)(=O)N1CCCC1 | -5.0% | 104.6%[activator]
N#CCSc1nnc(-c2ccccc2)n1-c1ccc(F)cc1 | 0.2% | -1.0%
C=C(C)CN1CCN(c2nc3c(c(=O)[nH]c(=O)n3C)n2Cc2cccc3ccccc23)CC1 | 12.2% | -7.3%
Cc1cc(NC(=O)c2ccc(NC(=O)C3=CSCCO3)cc2)ccc1Br | 92.5%[activator] | 4.3%
COc1cc2ncn(CCC(=O)N3CCCCCC3)c(=O)c2cc1OC | 8.6% | -10.0%
N#Cc1cccnc1NCC(CO)Cc1ccccc1 (stereo not given) | 19.7% | -0.3%
COc1ccccc1OCC(=O)N1CCN(Cc2nc(N)c3ccccc3n2)CC1 | 0.0% | -4.4%
O=C(NC1CC1)C(Sc1cccc(C(F)(F)F)c1)c1ccccc1 (stereo not given) | 0.0% | 31.5%[activator]
CCOC(=O)c1ccccc1NC(=O)CSc1nc2ccncc2[nH]1 | -7.3% | -7.1%
CCc1ccc(/C=C2\N=C(SC)SC2=O)cc1 | 0.0% | 6.0%
Cc1ccc(C)c(N2CCN(C(=O)Cn3cnc(S(=O)(=O)N4CCOCC4)c3)CC2)c1 | 6.9% | -0.1%
CN(C)CC(=O)N1CCN(C(=O)C=C(C2CC2)C2CC2)CC1 | 24.9% | 6.6%
COc1ccc(/C=C\C(=O)NC2CC(=O)N(c3ccccc3)C2)cc1OC (stereo not given) | -15.3% | -6.6%
CCc1cc(=O)oc2c3c(c(Cl)cc12)OCN(Cc1cccc(OC)c1)C3 | -4.4% | -9.4%
CCC1CCc2c(sc(NC(=O)C3c4ccccc4Oc4ccccc43)c2C(=O)OC)C1 (stereo not given) | -7.2% | -6.2%
CCCCN1CCN(C(=O)c2cc(-c3ccncc3)nc3c(C)c(C)ccc23)CC1 | 2.1% | 8.8%
O=C(NC1CCSC1=O)c1cc2ccccc2o1 (stereo not given) | 66.5%[activator] | 7.2%
O=C(c1cc2occc2n1Cc1ccccc1F)N1CCSCC1 | 3.0% | 0.0%
CCOc1ccc2c(=O)c(Oc3cccc(C)c3)coc2c1 | 0.0% | 4.4%
Cc1ccc2c(c1)C(=O)C(=O)N2Cc1ccc(OC(C)C)cc1 | 16.0% | 62.9%[activator]
COc1ccc(NC(=O)c2nn(-c3ccccc3C)c(=O)cc2OC)cc1 | 18.8% | -0.6%
CC(=O)Nc1cccc(NC(=O)c2ccc3[nH]c(C)c(C)c3c2)c1 | 142.4%[activator] | 9.3%
CCn1nc(C)c2c(-c3ccccc3)cc(OC(C)C(=O)Nc3cccc(F)c3)nc21 (stereo not given) | -12.0% | 0.0%
CCOC(=O)c1c(C)[nH]c(C)c1S(=O)(=O)NCC(=O)Nc1cccc(SC)c1 | -11.9% | 124.7%[activator]
Cn1c(=O)n(Cc2cccc(Cl)c2)c(=O)c2c1ncn2Cc1ccccc1 | 7.8% | 1.3%
Cc1ccc(CCNC(=O)c2ccc(CN3C(=O)CSc4ncccc43)cc2)cc1 | -14.9% | -12.0%
Cc1cc(Cl)ccc1N(CC(=O)NCCN1CCOCC1)S(=O)(=O)c1ccccc1 | -10.9% | -1.2%
Cc1cc(/C=C(/C#N)c2nc3ccccc3[nH]2)cc(C)c1O | 0.0% | -9.1%
O=C(O)CC1C(=O)NCCN1Cc1ccc(F)cc1 (stereo not given) | -12.9% | -9.6%
N#CC1(C#N)CC1(C#N)C(N)=O (stereo not given) | 9.8% | -2.3%

Other results follow:
SMILES | 2A firefly | StopGo RLuc
COc1ccc(N2C(=O)CS(=O)(=O)C23C(=O)N(Cc2cccc(F)c2)c2ccccc23)cc1OC (stereo not given) | -6.4% | -1.7%
O=C(COc1ccc(Cl)cc1)Nc1ccc2oc(-c3ccc(F)cc3)nc2c1 | 81.5%[activator] | -5.5%
CC1=C(C(=O)NCCc2ccc(Cl)cc2)C2(CCCCC2)OC1=O | -10.2% | 8.2%
Cc1cccc(NC(=O)C(C)n2cnc3c2c(=O)n(C)c(=O)n3C)c1 (stereo not given) | 18.2% | 14.1%
O=C(CCS(=O)CCC(=O)NCCc1ccccc1)NCCc1ccccc1 | -4.0% | -11.7%
COc1ccc(C2CCCN2Cc2coc(-c3ccc(F)cc3)n2)cc1 (stereo not given) | 7.9% | -2.4%
CC(C)Oc1ccc(CNC(=O)c2ccc(CN3CC(=O)N4CCCCC4C3=O)cc2)cc1 (stereo not given) | -5.3% | 15.6%
O=C(C=C(Sc1ccccc1)Sc1ccccc1)C(F)(F)F | 0.0% | -1.3%
CC(=O)Nc1ccc(-c2csc(Nc3cc(C)ccc3C)n2)cc1 | 0.0% | 2.1%
C=C(C)Cn1c(-n2nc(C)c(C)c2C)nc2c1c(=O)n(CCN1CCOCC1)c(=O)n2C | -15.2% | -10.6%
CNC(=O)c1ccc(S(=O)(=O)Nc2ccc(C(C)(C)C)cc2)cc1 | -8.6% | 14.2%
Cc1cc(C)c(NC(=O)Cn2c(=O)n(CCCCC(=O)NCc3ccccc3Cl)c(=O)c3ccccc32)c(C)c1 | -7.3% | -3.8%
CCc1c(C)sc(NC(=O)c2ccc3c(c2)OCO3)c1C(=O)OC(C)C | 14.7% | -11.5%
CCCn1c(=O)[nH]c(=O)c2c1nc(-c1ccc(OCCC(C)C)cc1)n2CCOC | -7.3% | -14.9%
O=C(CCC1N=C2c3ccccc3N=C(SCC(=O)Nc3ccccc3F)N2C1=O)NCc1ccco1 (stereo not given) | 12.2% | 18.5%
Cc1cc(Cl)ccc1NC(=O)CN1C(=O)COc2ccc(S(=O)(=O)N3CCC(C)CC3)cc21 | 15.8% | -6.2%
COc1ccc(CNC(=O)CCc2c(C)nc3cc(-c4ccc(OC)cc4OC)nn3c2C)cc1 | -14.4% | -1.2%
Cc1cc(C)cc(NC(=O)Cn2nnc(C(=O)NCCc3ccccc3)c2N)c1 | -16.4% | -12.4%
CSc1ccc(/C=C2/C(C)=C(CC(=O)O)c3cc(F)ccc32)cc1 | -13.5%[11.5 µM] | 2.0%
COc1cccc(-n2c(SCC(=O)Nc3ccc(F)cc3F)nc3c([nH]c4ccccc43)c2=O)c1 | -10.1% | -9.7%

Part of the list above, as labelled records:
canonical_smiles: O=C(CCS(=O)CCC(=O)NCCc1ccccc1)NCCc1ccccc1
  2A firefly: -4.0%	StopGo RLuc: -11.7%
canonical_smiles: COc1ccc(C2CCCN2Cc2coc(-c3ccc(F)cc3)n2)cc1 (stereo not given)
  2A firefly: 7.9%	StopGo RLuc: -2.4%
canonical_smiles: CC(C)Oc1ccc(CNC(=O)c2ccc(CN3CC(=O)N4CCCCC4C3=O)cc2)cc1 (stereo not given)
  2A firefly: -5.3%	StopGo RLuc: 15.6%

Compound activity: PubChem BioAssay, National Center for Advancing Translational Sciences (NCATS)
